ClpP mod = qHTS Assay for Activators of ClpP; ATP-dependent Clp protease proteolytic subunit (Bacillus subtilis (strain 168)), P80244; purified B. subtilis ClpP, FRET peptide cleavage, 20 min; Potency, µM (highest dose often 57.5 µM), for the others: at the top dose activity change, negative = active; 340,000 compounds, 1.9% hits; AID 651965, 2013; active = well fitted falling curve with a large enough effect; inconclusive = small, poorly fitted or top-dose-only effect; inactive = no such curve, though single readings can be large or run the other way; also: potency is read from the fitted curve at half-maximal effect; the source files actives as falling curves though it sought activators and does not explain the sign; nearly all actives have a fitted effect of over 65% in size; many hits overshoot -100%
Target sequence (P80244 whole entry, looked up): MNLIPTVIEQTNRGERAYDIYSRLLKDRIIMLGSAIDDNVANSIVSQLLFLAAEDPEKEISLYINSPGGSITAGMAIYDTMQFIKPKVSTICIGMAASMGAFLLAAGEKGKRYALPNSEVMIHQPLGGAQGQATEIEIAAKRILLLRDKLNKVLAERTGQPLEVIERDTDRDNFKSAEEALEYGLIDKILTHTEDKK
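Buffer: 100 mM Tris/HCl pH8, 100 mM KCl, 0.05% low protease BSA, 2.5% glycerol, 0.01% Tween-20. ClpP 10 microg/mL final; 20 min RT; delta FRET normalized to ADEP and DMSO controls.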
PINK1 modulator = A Quantitative High throughput Screen to Identify Chemical Modulators of PINK1 Expression; PINK1 immunofluorescence, high-content cytometry, 24 h; Potency, µM (doses to about 76.6 µM), inactives show at the highest dose activation (PINK1 increase), most hits filed as activators; 410,000 compounds, 0.2% hits; AID 624263, 2012; active = well fitted activation curve with a large enough effect; inconclusive = small, poorly fitted or top-dose-only effect; inactive = flat fitted curve, though single readings scatter; cell line not stated here;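 also: potency is read from the fitted curve at half-maximal effect; % of control where 0% means no effect; nearly all actives have a fitted effect of over 65% in size; a mitochondrial uncoupler was the plate control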
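Stable cell line treated 24 h with compounds at 5 concentrations (CCCP controls), then fixed and immunostained for PINK1 plus nuclear and cell stains; PINK1 immunofluorescence quantified by laser-scanning microplate cytometry.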
Menin-MLL FL inh = qHTS Assay for Inhibitors Targeting the Menin-MLL Interaction in MLL Related Leukemias: Competition With Fluorescein Labeled MLL-derived Peptide; Fluorescence polarization, fluorescein-MLL peptide displacement from menin; FP activity change, % at 61.4 µM; 290,000 tested, under 10 active; inconclusive = falling polarisation curve, or a change in total fluorescence; inactive = total fluorescence flat and polarisation flat or rising; no compound was filed as active; the % refers to the polarisation; negative = inhibition;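 also: % of control where 0% means no effect; inhibitors lower the polarisation; unlabelled MLL peptide was the positive control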
D2 agonist = Beta-Arrestin HTS for Positive Allosteric Modulators of the Human D2 Dopamine Receptor: Agonists; DiscoveRx PathHunter D2 beta-arrestin, luminescence, 90 min; 100% = 57 uM dopamine signal; activation, % (concentration not given with the values); 360,000 compounds, 0.084% hits; in the data active = activation above about 40%; inconclusive = about 15% to 40%; inactive = below about 15%; also: the text of the record calls up to 30% inactive
Target sequence (P14416 whole entry, looked up): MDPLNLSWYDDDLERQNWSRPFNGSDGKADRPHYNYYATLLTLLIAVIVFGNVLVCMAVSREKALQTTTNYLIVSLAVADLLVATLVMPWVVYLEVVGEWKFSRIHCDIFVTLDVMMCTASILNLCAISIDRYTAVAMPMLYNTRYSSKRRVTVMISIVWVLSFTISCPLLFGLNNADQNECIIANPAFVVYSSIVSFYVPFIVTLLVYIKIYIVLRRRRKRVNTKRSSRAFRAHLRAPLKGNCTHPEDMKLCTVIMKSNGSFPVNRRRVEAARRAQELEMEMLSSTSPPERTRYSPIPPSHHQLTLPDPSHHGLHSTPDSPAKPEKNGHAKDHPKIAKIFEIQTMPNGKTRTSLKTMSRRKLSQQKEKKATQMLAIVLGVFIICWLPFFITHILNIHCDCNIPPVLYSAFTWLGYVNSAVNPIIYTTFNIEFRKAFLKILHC
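Agonist mode: compounds alone added to overnight-plated D2 PathHunter cells for 90 min at 37 C, with 57 uM final dopamine (EC100) defining full response. Beta-arrestin recruitment detected by chemiluminescent reagent, read after 1 h at ambient temperature.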
gsp agonist = qHTS for Agonist of gsp, the Etiologic Mutation Responsible for Fibrous Dysplasia/McCune-Albright Syndrome: qHTS; Potency, µM (highest dose often 76.9 µM), for inactives: at the highest dose activation (cAMP increase), hits mostly activators; 340,000 compounds, 0.13% hits; gsp mutant cells, cAMP HTRF, 30 min; control for the full effect not named in the record; AID 624287, 2012; active = well fitted activation curve with a large enough effect; inconclusive = small, poorly fitted or top-dose-only effect, or another doubt; inactive = no such curve, though single readings can be large or run the other way; cell line not stated here;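 also: phosphodiesterase inhibitor Ro 20-1724 added with compounds to block cAMP breakdown; potency is read from the fitted curve at half-maximal effect; nearly all actives have a fitted effect of over 60% in size; about a fifth of the inactives were tested at one dose only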
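Cells in DMEM/10% FBS with G418 were pretreated with compounds in DMSO plus […] (300 uM stock) for 30 min at 37C. cAMP was measured by HTRF (cAMP-d2 plus anti-cAMP antibody-K) after 30 min at room temperature.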
Sfp inh = qHTS Assay for Inhibitors of Bacillus subtilis Sfp phosphopantetheinyl transferase (PPTase); AID 1490, 2009; Biochemical Sfp PPTase activity, qHTS; 4'-phosphopantetheinyl transferase ffp (Bacillus subtilis), Q9F4F7; Potency, µM, for the others: max response, negative = inhibition, hits mostly inhibitors; 310,000 compounds, 3.5% hits; active = well fitted inhibition curve with a large enough effect; inconclusive = small, poorly fitted or top-dose-only effect, or another doubt; inactive = no such curve, though single readings can be large or run the other way;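 also: the enzyme is Sfp with the accession as filed and its product quenches rhodamine fluorescence; potency is read from the fitted curve at half-maximal effect; 0% = enzyme reaction without inhibitor and -100% = no enzyme wells; top concentration of the series not given in the record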
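Sfp 15 nM + cpd, 15 min RT; start w/ rhodamine-CoA 5 uM, BHQ-2-YbbR 12.5 uM (final); 50 mM Hepes pH 7.6, 10 mM MgCl2, 0.01% NP-40, 0.01% BSA; read 525/598 nm at 0 and 30 min.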
gsp antagonist = qHTS for Antagonists of gsp, the Etiologic Mutation Responsible for Fibrous Dysplasia/McCune-Albright Syndrome: qHTS; gsp-mutant cells, cAMP HTRF, 30 min; control for the full effect not named in the record; Potency, µM (highest dose often 76.9 µM), inactives show at the top dose activity change, negative = inhibition, actives largely listed as inhibitors; 340,000 compounds, 0.4% hits; active = falling curve of any shape with a large fitted effect; inconclusive = falling curve, mostly with a smaller effect; inactive = flat or rising curve; cell line not stated here;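 also: intracellular cAMP measured with PDE inhibitor Ro 20-1724 present during compound exposure; potency is read from the fitted curve at half-maximal effect; % is scaled to controls: 0 for no effect and ±100 for the full control effect; nearly all actives have a fitted effect of over 65% in size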
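HTRF cAMP read-out (cAMP-d2 plus anti-cAMP antibody-K in lysis buffer, 30 min RT). Before lysis, cells are exposed to compounds with […] for 30 min at 37C in DPBS containing Ca/Mg, BSA and Tween 20.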
Starred values were filed as active, the others as inactive; ? = inconclusive; . = no result given; & = joins results of further samples; [ ] = remark or other dose.

SMILES	ClpP mod	PINK1 modulator	Menin-MLL FL inh	D2 agonist	gsp agonist	Sfp inh	gsp antagonist
CCCCOc1ccccc1C1NC(=O)NC(C)=C1C(=O)OCCOC (stereo unspecified)	0.4%	.	.	1.1	-24.6%	.	-6.9%
N=c1oc2cc(O)ccc2cc1C(=O)Nc1ccc(F)cc1	3.3%	14.1µM*	?	3.5	37.8%	-3.6%	?
CCS(=O)(=O)N1Cc2ccccc2CC1C(=O)N1CCN(c2ccccc2)CC1 (stereo unspecified)	-2.0%	-1.2%	4.5	0.3	-2.1%	-3.7%	-12.4%
CCOCc1nnc(NC(=O)CS(=O)(=O)c2ccc(C)cc2)s1	.	1.3%	3.1	2.8	-14.1%	-0.6%	1.9%
COc1ccc([N+](=O)[O-])cc1C(=O)C(=O)c1ccccc1	1.0%	0.8%	-2.9	-6.2	19.1%	-2.1%	-3.0%
COc1ccc(Br)cc1CNC(=O)CCCc1cn(C)c2ccccc12	-14.7%	-1.0%	3.3	-3.3	-66.0%[inhibitor]	15.7%	-18.2%
CCC(C)NC(=O)c1ccc2nc(Cc3ccc(OC)cc3)oc2c1 (stereo unspecified)	1.5%	1.9%&0.5%	-2.8	12.0	?	10.1%	-5.5%
CC(C)n1c(SCC(=O)N2CCN(C)CC2)nc2c1c(=O)n(C)c(=O)n2C	.	-0.8%	-3.8	-2.6	-7.0%[15.4 µM]	1.7%	5.7%
O=C(CCCc1ccccc1)NCCC1=CCCCC1	.	1.6%	-0.3	1.0	-16.8%[15.4 µM]	-0.1%	.
Cc1nc(COC(=O)c2ccc(CO)cc2)cs1	-0.3%	0.0%	3.0	-2.8	7.0%	17.0%	12.3%
NC(=O)c1ccc(Nc2nc(C(N)c3ccccc3Cl)cs2)cc1 (stereo unspecified)	-15.7%	1.6%	.	-2.3	.	.	.
CC(NC(=O)CSc1ncccc1C(=O)O)C1CC2CCC1C2 (stereo unspecified)	-1.6%	0.2%	-2.1	4.6	?	17.9%	6.4%
O=c1[nH]c2c(cnn2-c2ccc(Cl)cc2)c(=O)n1-c1cccc(Cl)c1	.	3.1%	4.3	-5.3	0.6%	4.2%	?
CCOC(=O)c1cnn(-c2nc(OC)cc(OC)n2)c1C(F)(F)F	1.1%	-0.8%	4.6	1.1	30.6%[15.4 µM]	16.8%	-4.6%
Cc1nn(C)c(C)c1CCC(=O)N1CCCC(C(=O)c2cccc(OC(C)C)c2)C1 (stereo unspecified)	-3.0%	0.1%	0.7	5.3	?	27.9%	3.3%
Cc1cc(C)nc(SCCCNCc2ccc(Br)cc2)n1	1.3%	0.9%	-7.2	-1.8	-13.9%	-5.8%	4.4%
Cc1cc(C)cc(OCc2nnc(SCC(=O)c3ccccc3)o2)c1	-0.7%	-2.2%	1.8	0.3	8.4%	-17.4%	-12.1%
CC(C)(C(=O)Nc1nccs1)c1ccccc1	1.0%	0.9%	3.7	-1.1	3.1%[15.4 µM]	-12.8%	15.4%
O=C(CSc1c[nH]c2ccccc12)NCC1CCCO1 (stereo unspecified)	0.0%	-0.9%	0.1	-0.6	-33.9%[inhibitor]	?	8.4%
O=C(CN1CCN(c2ccccc2O)CC1)Nc1ccc2c(c1)CCC2	.	-1.0%	3.4	-0.1	14.8%[15.4 µM]	5.6%	2.1%
CN(CC(=O)Nc1ccccc1C(F)(F)F)C(=O)C1=COCCO1	2.8%	0.4%	.	-2.1	-23.0%	.	8.8%
CCCC(=O)N1CCCC1(C)C(=O)Nc1ccc(C)c(C)c1 (stereo unspecified)	0.9%	1.8%	.	-1.9	.	.	.
CCc1ccc(NC(=O)c2ccc(F)c(S(=O)(=O)N(CC)c3ccccc3)c2)cc1	-6.0%	6.5%	-2.1	2.6	-0.2%	20.5%	-10.7%
COc1ccc(S(=O)(=O)N2CCN(Cc3cc(OC)c(OC)c(OC)c3)CC2)cc1	-6.7%	0.2%	0.0	2.8	3.7%[15.4 µM]	-28.2%	2.0%
N#Cc1cnc(Nc2ccc(F)cc2)nc1N	0.1%	-1.6%	-1.6	-10.8	2.5%[15.4 µM]	-1.0%	11.2%
S=C(Nc1ccccc1Cl)N1CCCC(c2ccccc2)=N1	.	0.0%	-1.2	0.9	-13.7%[15.4 µM]	-1.5%	-19.7%
COC(=O)C(C)Oc1ccc(Cl)c(CN2OCC(C)(C)C2=O)c1 (stereo unspecified)	.	0.8%	.	-0.1	?	.	-6.3%
O=C(Nc1cccc(Cl)c1)C1CCCCC1	0.8%	-1.0%	.	-2.4	3.6%	.	-6.4%
CCOC(=O)[C@@H](NC(=O)/C=C/[C@H]1O[C@@H](n2ccc(=O)[nH]c2=O)[C@H](O)[C@@H]1O)C(C)C	0.2%	0.3%	.	-5.2	.	.	.
CS(=O)(=O)Nc1cccc(C2=NN(C(=O)c3ccco3)C(c3ccco3)C2)c1 (stereo unspecified)	-0.9%	7.4%	2.4	6.2	?	-12.7%	-20.9%
Cc1cc(N/C=C(\C#N)S(=O)(=O)c2ccccc2Cl)nc(C)n1	0.2%	1.9%	-0.1	-5.1	-3.6%[15.4 µM]	7.9%	-15.0%
CS(=O)(=O)N1CCC2(CCN(C(=O)Nc3cccc(F)c3)CC2)CC1	.	0.1%	3.0	.	.	32.3%	.
COCc1cc(=O)[nH]c(/N=C(\N)Nc2ccc(Cl)c(Cl)c2)n1	.	1.4%	-0.9	-1.0	-5.3%[15.4 µM]	-3.6%	3.6%
COCCn1c(N)c(C(=O)OCc2ccccc2)c2nc3ccccc3nc21	7.94µM*	2.3%	2.7	-0.5	12.0%	-17.7%	-5.9%
O=c1cc(-c2ccc(O)cc2)oc2cc(O)c([C@@H]3O[C@H](CO)[C@@H](O)[C@H](O)[C@H]3O)c(O)c12	-1.3%	5.3%	5.2	-2.3	-23.5%	6.1%	-0.5%
O=C(CCCOc1ccc(Cl)cc1)Nc1ccc(N2CCOCC2)cc1	-1.3%	1.7%	0.9	-2.5	-15.2%	-3.5%	91.0%[activator]
COc1ccc(NC(=O)CC(c2ccc(F)cc2)c2ccc(OC(C)C)cc2)cc1 (stereo unspecified)	1.0%	5.0%	3.0	-1.3	3.0%	-7.4%	-3.3%
CN(CC(=O)O/N=C(\N)c1cccc([N+](=O)[O-])c1)S(=O)(=O)c1ccccc1	-9.9%	5.3%[38.3 µM]	1.1	-1.7	-43.5%[inhibitor]	1.9%	?
COc1ccc(C(=O)ON=C2C=C(C)C(=O)C(C)=C2)cc1	2.6%	12.6%	-4.0	12.9	-51.9%[inhibitor]	15.4%	-2.2%
CCc1cc(OCCCSc2nc(C)cc(=O)[nH]2)ccc1Cl	-1.8%	10.2%[38.3 µM]	2.3	2.7	21.5%	3.8%	?
CCCCOCP(=O)(CCCC)COCCCC	-1.7%	0.6%	-2.0	-2.8	-20.0%	15.5%	9.4%
O=C(CN1C(=O)c2ccccc2S1(=O)=O)NCCSC1CCCCC1	1.6%	5.3%	0.2	-1.8	-5.0%	13.5%	-0.4%
CCCn1c(N)c(C(=O)CN(C)CC(=O)Nc2ccccc2CC)c(=O)[nH]c1=O	-0.7%	1.8%	.	-0.4	-27.1%	.	-6.8%
O=C(OCc1ccco1)c1cccnc1	-0.1%	-1.8%	-2.0	-3.5	30.2%	14.2%	9.0%
COc1ccc(-c2noc(CN(C)C(=O)c3ccc4c(c3)OCO4)n2)cc1	-2.8%	0.3%	4.0	-2.5	14.6%[15.4 µM]	11.7%	1.2%
CCCc1cc(=O)c2c(O)ccc(OC)c2o1	3.6%	-2.3%	1.0	-5.5	-4.7%[15.4 µM]	22.9%	10.6%
N#C/C(=C/c1cccc(C(F)(F)F)c1)c1nc(CCN2C(=O)c3ccccc3C2=O)cs1	-12.1%	27.7%[38.3 µM]	1.4	-2.7	18.2%	18.2%	0.9%
CN(C)/C=C(/C(=O)c1ccc(Cl)c(Cl)c1)c1nnnn1-c1ccccc1	1.4%	0.7%	4.2	-2.7	-8.8%	3.1%	-3.0%
N=C1C(c2ccccc2)=C(O)CN1c1ccc2c(c1)OCO2	-1.2%	.	2.1	2.1	-20.0%	2.7%	-4.4%
Cc1cc(Nc2c(C#N)c(N)nn2C)ccc1F	-1.3%	0.4%	-11.1	-4.7	10.5%	-3.0%	5.5%
COc1ccccc1CNC(=O)[C@@H](NC(=O)C1CCN(C(=O)[C@@H]2CCCN2)CC1)C(C)C	-4.6%	0.3%	1.0	3.1	.	11.6%	11.1%
C[C@@H]1CN([C@H](C)CO)C(=O)Cc2cc(NC(=O)CCC(F)(F)F)ccc2O[C@@H]1CN(C)S(=O)(=O)c1ccccc1	-0.1%	-1.1%	.	-2.5	.	.	-8.2%
O=C(NCc1ccco1)c1noc2c1CCCC2	-4.5%	3.8%[38.3 µM]	3.9	-2.2	9.1%	16.7%	7.6%
CCN(C(=O)CSc1nnc(C)n1-c1ccc(C)cc1)c1c(N)n(Cc2ccccc2)c(=O)[nH]c1=O	1.4%	0.2%	.	-4.6	-0.9%	.	16.3%
CC(=O)N1CCc2cc(S(=O)(=O)CCC(=O)NCc3cccs3)ccc21	-0.2%	-1.6%	0.7	-1.8	10.2%	-4.8%	-4.4%
CC(NC(=O)CSc1ccc(S(=O)(=O)N2CCOCC2)cn1)c1ccc(Cl)cc1Cl (stereo unspecified)	-0.4%	1.8%	.	1.2	-0.4%	.	-3.0%
COc1ccc(-n2c(=O)cnc3cnc(Oc4ccccc4)nc32)cc1	.	-0.6%	?	.	.	15.9%	.
Cc1c(C)c2cc(Cl)c(OC(C)C(=O)NCCN3CCOCC3)cc2oc1=O (stereo unspecified)	3.6%	1.7%	.	4.6	?	12.7%	-6.3%
CC(C)(C)NC(=O)c1nn(Cc2ccccc2)c(=O)c2ccccc12	1.1%	2.1%	-1.3	-3.2	-9.8%[15.4 µM]	6.6%	4.4%
